VDR inhibitor = vitamin D3 receptor (human) inhibition; VDR-SRC2-3 peptide fluorescence polarization, 2 h; 400,000 tested, 0.93% active; Potency, µM, inactives show max response, negative = inhibition, most hits filed as inhibitors; AID 504847; P11473; active = well fitted inhibition curve with a large enough effect; inconclusive = small, poorly fitted or top-dose-only effect, or another doubt; inactive = no such curve, though single readings can be large or run the other way; also: series mostly up to about 120 µM
Target sequence (P11473 whole entry, looked up): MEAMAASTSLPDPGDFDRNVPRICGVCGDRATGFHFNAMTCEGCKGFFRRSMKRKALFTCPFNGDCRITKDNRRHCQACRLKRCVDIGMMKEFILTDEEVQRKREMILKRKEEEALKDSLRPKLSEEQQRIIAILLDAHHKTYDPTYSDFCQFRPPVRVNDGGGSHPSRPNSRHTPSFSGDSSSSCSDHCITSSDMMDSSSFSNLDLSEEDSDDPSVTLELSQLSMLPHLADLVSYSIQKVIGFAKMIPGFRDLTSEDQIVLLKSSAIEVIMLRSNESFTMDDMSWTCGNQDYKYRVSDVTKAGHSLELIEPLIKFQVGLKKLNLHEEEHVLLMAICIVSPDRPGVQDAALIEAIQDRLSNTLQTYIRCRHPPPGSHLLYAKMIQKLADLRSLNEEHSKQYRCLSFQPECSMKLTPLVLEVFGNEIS
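Compounds are added to VDR with labelled SRC2-3 coactivator peptide and held 2 h at room temperature. Inhibition of the VDR–peptide interaction is then read as a change in fluorescence polarization.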
The depositor's hits bear a star; ? = inconclusive; & = joins results of further samples. % is scaled to controls: 0 for no effect and ±100 for the full control effect; potency is read from the fitted curve at half-maximal effect. This is a subset; the hit share may differ from the screen's.

SMILES | VDR inhibitor
CC[C@H](C)[C@H](NC(=O)[C@H](CC(=O)O)NC(=O)[C@H](CC(N)=O)NC(=O)[C@@H](NC(=O)[C@H](CCCNC(=N)N)NC(=O)[C@@H](NC(=O)[C@@H](NC(=O)[C@@H](NC(=O)[C@@H](NC(=O)[C@H](CCCCN)NC(=O)[C@@H](NC(=O)[C@H](CC(C)C)NC(=O)[C@@H](NC(=O)[C@H](CCCCN)NC(=O)[C@@H](NC(=O)[C@H](CC(=O)O)NC(=O)[C@H](CC(=O)O)NC(=O)[C@H](CCC(N)=O)NC(=O)[C@@H](NC(=O)[C@H](CCCCN)NC(=O)[C@H](CCC(N)=O)NC(=O)[C@@H](NC(=O)[C@@H]1CCCN1C(=O)[C@@H](N)C(C)C)[C@@H](C)CC)C(C)C)[C@@H](C)O)[C@@H](C)O)[C@@H](C)CC)[C@@H](C)O)[C@@H](C)CC)C(C)C)[C@@H](C)O)[C@@H](C)CC)C(=O)N[C@@H](CO)C(=O)N[C@@H](Cc1cnc[nH]1)C(=O)N[C@H](C(=O)N[C@@H](CCC(N)=O)C(=O)N[C@@H](CO)C(=O)N[C@H](C(=O)N[C@@H](CO)C(=O)N[C@@H](CO)C(=O)N[C@@H](CCCCN)C(=O)N[C@@H](CCC(N)=O)C(=O)N[C@@H](CCCCN)C(=O)O)C(C)C)[C@@H](C)O | 3%
Cc1cc(C)c(C#N)c(SCC(=O)c2ccccc2)n1 | -12%
O=C(CSc1nc2ccc(NC(=O)c3ccccc3C(=O)O)cc2s1)Nc1c(Cl)cccc1Cl | -16%
COc1ccc(NC(=O)NCCCCc2ccccc2)cc1 | 14%
O=C(O)C1CC(O)CN1C(=S)Nc1ccccc1 (configuration not stated) | -7%
CC1(C)CC(=O)C2=C(C1)OC(c1cccs1)C(C#N)=C2N (configuration not stated) | 11%
O=C(c1csnn1)N1CCC2(CC1)CN(c1cccc(-c3ccccc3)c1)C2 | -21%
CN1C(=O)/C(=C/c2ccc(OCc3ccccc3F)cc2)N(C)C1=S | -7%
CCOc1cc(N2CCOCC2)c(OCC)cc1NC(=O)c1nn(CC)c(=O)c2ccccc12 | -16%
O=C(O)Cc1csc(-c2cccc(Oc3ccccc3)c2)n1 | -6%&-10%
CCN(CCO)Cc1csc2ccccc12 | -1%
CC(C)(C)OC(=O)C[C@@H]1C/C=C\C[C@@H](CC(=O)N(CCO)Cc2ccccc2)C(=O)NC[C@@H](c2ccccc2)OC1=O | -1%
Cc1ccc(CNC(=O)c2cc3c(s2)-c2c(C)cccc2OC3)cc1 | 11%
c1ccc(CN2CCN(c3nc(NCc4ccco4)c4ccccc4n3)CC2)cc1 | -9%
COc1ccc(NS(=O)(=O)c2cc3c4c(c2)CC(=O)N4CCC3)cc1Cl | 2%
COc1ccccc1NC(=O)N1CCC(CN2CCc3ccccc3C2)CC1 | 6%
CC(C)(C)c1nnc2sc(SCC(=O)N3CCCc4ccccc43)nn2c1=O | -9%
O=C(O)c1c(Cl)cccc1Nc1ccccc1 | -19%
O=C(COc1cccnc1[N+](=O)[O-])Nc1c(Cl)cccc1Cl | 15%
Cc1ccc(C(=O)NN2C(=O)C3C4C=CC([C@@H]3C2=O)C42CC2)cc1 (some centres not stated) | -4%
Cc1nc2cc(C(=O)OCC(=O)Nc3cccc(Cl)c3)ccc2n1-c1ccccc1 | -21%
C=CCN1C(=O)C2(OCCCO2)c2cc(CCCC)ccc21 | 20%
CCC(C)NC(=O)C1CCN(C(=O)c2cc3sccc3n2Cc2ccc(Cl)cc2)CC1 (configuration not stated) | -2%
COc1ccc(-c2cc3nc4c(c(N5CCC6(CC5)OCCO6)n3n2)CCC4)cc1 | -3%
COc1ccc(CC(=O)Nc2ccc(C(=O)NCC(C)C)cc2)cc1 | -4%

Continuation.
SMILES | VDR inhibitor
COc1ccc2c(c1)c(=O)cc(-c1ccccc1)n2C | 8%
Cc1nn(C)c(C(=O)N2CCN(C(=O)c3ccco3)CC2)c1[N+](=O)[O-] | -2%
CCOC(=O)C1CCN(C(=O)C2COc3ccccc3C2)CC1 (configuration not stated) | 6%
O=C(CSc1nnnn1-c1cccc(F)c1)NC1CC1 | 2%
O=C(c1ccc(Cl)cc1)[C@@H]1[C@@H]2C(=O)N(c3cccc4ccccc34)C(=O)[C@@H]2C2c3ccccc3C=NN21 (some centres not stated) | -12%
O=C(CCl)N1c2ccccc2Sc2c1ccc1ccccc21 | ?
Cc1nn(CC(=O)NC(C)C)c(C)c1[N+](=O)[O-] | -2%
COc1cccc(CNC(=O)CCS(=O)(=O)c2ccc3c(c2)NC(=O)CS3)c1 | -18%
O=C(C1CCCN(S(=O)(=O)c2ccccc2)C1)N1CCCc2ccccc21 (configuration not stated) | -2%
O=C1c2[nH]nc(-c3ccccc3O)c2C(c2ccccc2)N1Cc1ccco1 (configuration not stated) | -12%
O=C(CN(c1ccccn1)S(=O)(=O)c1ccc(F)cc1)Nc1ccc(F)cc1F | 11%
COc1ccc(OC)c(C2=C/C(=C/c3ccccn3)C(=O)O2)c1 | -8%
O=C(CC(=O)c1ccccc1)CS(=O)(=O)c1ccccc1 | -5%
COc1cccc(NC(=O)C(=O)NCCCN2CCCC2=O)c1 | 7%
CC(=O)c1ccc(O)c(CC=C(C)C)c1 | 3%
CCOc1ccccc1N1CC(C(=O)N2CCc3ccccc3C2)CC1=O (configuration not stated) | ?
Cc1ccc2c(c1)cc(C(=O)N[C@@H](Cc1ccccc1)C(=O)O)n2C | -4%
Cc1ccc2c(c1)c(=O)c1ccccc1n2CCCC(=O)Nc1ccc(C)c(F)c1 | 5%
CCCCCCCc1n[nH]c(=S)n1Cc1ccccc1 | -13%
COc1ccc(C(=O)/C=C2\NCCc3cc(OC)c(OC)cc32)cc1OC | -1%
O=c1c2ccccc2nc2n1CCS2(=O)=O | -6%
O=C(NNC(=O)c1ccncc1)Nc1cccc([N+](=O)[O-])c1 | -2%
CC(=O)c1ccc(NC(=O)c2cc3ccccc3o2)cc1 | 5%
CC(=O)c1cc2c(cc1NC(=O)CN1CCCCCC1)OCO2 | -13%
CC(C)NC(=O)c1ccc2c(=O)n(C3CCCC3)c(=S)[nH]c2c1 | -12%

Next structures
SMILES | VDR inhibitor
CCCOC(=O)Nc1ccc(C(N)=O)cc1 | 14%
COc1cccc(NC(=O)N2CCN(S(C)(=O)=O)CC2)c1 | 8%
CCOc1ccc(NC(=O)CN2CCN(CC(=O)Nc3ccc4c(c3)OCO4)CC2)cc1 | -11%
COc1cc2nc(C3CCC3)n(NC(=O)c3ccco3)c(=O)c2cc1OC | 3%
CCC(Cn1nnc2ccccc2c1=O)NC(=O)Nc1ccccc1Cl (configuration not stated) | -3%
CCc1ccc(CNCc2ccc(F)cc2)cc1 | -10%
CC(=O)c1ccc(NC(=O)CSc2ccsc2[N+](=O)[O-])cc1 | 7%
CCc1nc2cc(Cl)c(Cl)cc2[nH]1 | -4%
Cc1cc(=O)n(CC(=O)Nc2ccc(Cl)c(Cl)c2)c(-n2nc(C)cc2C)n1 | 7%
Cn1cc(CN2CCCC(CNC(=O)c3ccc4c(c3)OCO4)C2)c2ccccc21 (configuration not stated) | 6%
CCn1c(SCC(=O)O)nnc1-c1ccc2[nH]c(C)c(C)c2c1 | -24%
COc1cccc(NC(=O)CN(C)C(=O)c2c(-c3ccccc3)noc2C)c1 | -19%
Cc1cccc(OC(C)C(=O)Nc2ccc(S(=O)(=O)N3CCCC3)cc2)c1 (configuration not stated) | 10%
Cc1ccc2c(c1)N(CC(=O)N1CCN(c3nc4ccccc4s3)CC1)C(=O)C(C)O2 (configuration not stated) | -1%
COc1cccc2cc3c(=O)oc4ccccc4c3nc12 | 8%
COc1ccc(C2CC(=O)c3sc(NC(C)=O)nc3C2)cc1 (configuration not stated) | -5%
CC(C)C(NC(=O)c1ccc(C(C)(C)C)cc1)C(=O)Nc1ccc(N2CCOCC2)cc1 (configuration not stated) | 20%
CC(C)NC(=O)NC(=O)CN1c2cccc3cccc(c23)S1(=O)=O | -11%
O=C(C=C1CCN(c2ncc(C(F)(F)F)cc2Cl)CC1)NNC(=O)Nc1ccccc1 | 2%
O=C(CSCCO)Nc1cccc(C(F)(F)F)c1 | 3%
CCc1ccc(S(=O)(=O)c2nnn3c2nc(N2CCCC(C)C2)c2cc(Cl)ccc23)cc1 (configuration not stated) | 7%
COc1cccc(-c2nnc(N(C)C(=O)C3CCOC3)s2)c1 (configuration not stated) | -2%
CCOC(=O)c1c(NC(=O)C(=O)N/N=C/c2ccc(OCC)cc2)sc2c1CCCCC2 | -12%
COc1ccc(CCNC(=O)Cn2cc(C(=O)c3ccc(F)cc3)c(=O)c3ccc(C)nc32)cc1OC | 20%
COc1ccc(COCC(O)CN2CCOCC2)cc1OC (configuration not stated) | 7%

Later entries:
SMILES | VDR inhibitor
Cc1ccc(-c2nnn(CC(=O)Nc3ccc(S(=O)(=O)N4CCC(C)CC4)cc3)n2)cc1 | -18%
O=C1NC(=S)N/C1=C\c1ccc(Oc2ccc(C(F)(F)F)cc2[N+](=O)[O-])c(Cl)c1 | 16%
S=c1[nH]nc(-c2ccc3ccccc3n2)n1-c1ccccc1 | -16%
Cc1ccccc1NC(=O)c1ccc([N+](=O)[O-])o1 | 12%
CCOC(=O)c1ccc(NC2=CC(c3ccc(O)c(OCC)c3)N(c3ccc(C(=O)OCC)cc3)C2=O)cc1 (configuration not stated) | -9%
Cc1ccc(C(=O)NNC(=O)Cc2csc(-c3csc(C)n3)n2)cc1 | 2%
Cc1ccc2[nH]c3c(c2c1)CN(C(=O)CN1CCCCC1)CC3 | 20%
Nc1c(C(=O)NCc2ccccc2)c2nc3ccccc3nc2n1-c1ccc2c(c1)OCO2 | 3%
CSc1ccc(/C=C/C(=O)OCC(=O)N2CCc3ccccc32)cc1 | -8%
CCN(CC)CCNC(=O)CN1C(=O)COc2ccc(S(=O)(=O)N3CCOCC3)cc21 | 12%&-18%
NC(=O)COC(=O)c1c2c(nc3ccccc13)CCCC2 | -8%
COC(=O)[C@@H]1C[C@H]2CC[C@H](O)C[C@H]2N1Cc1ccccc1OS(=O)(=O)c1ccc(C)cc1 | -8%
Cc1ccc(N2C(=O)C3CCCN3C2=S)cc1Cl (configuration not stated) | -2%
CCOC(=O)c1[nH]c2ccc(Cl)cc2c1NC(=O)c1nonc1C | 4%
Cc1cccc(N2CC(C(=O)NC3CCCCCC3)CC2=O)c1C (configuration not stated) | -11%
COc1ccc(C(=O)NC(=S)Nc2nc(C)c(C(=O)N(C)C)s2)cc1 | 1%
Cc1ccc(N(C(=O)c2ccccn2)C(C(=O)NC2CCCCC2)c2ccncc2)cc1 (configuration not stated) | 1%
COc1ccc(NCc2nnc(SCC(=O)N3CCCc4ccccc43)n2C)cc1 | 0%
COc1ccccc1NC(=O)CCSc1ccc(C)cc1 | 4%
CCOC(=O)c1c(NC(=S)N2CCCCC2)sc2c1CCN(C(=O)OCC)C2 | -29%
COc1ccc(/C=N/n2cncn2)cc1CSc1ccccn1 | -16%
CCOC(=O)CNC(=O)CSc1ncnc2c1nnn2-c1ccc(F)cc1 | 2%
O=C(O)[C@@H]1CCCN1S(=O)(=O)c1cccc2cccnc12 | -2%
CN(C)S(=O)(=O)N1CCc2ccccc2C1 | 2%
CC(c1ccccc1)n1c(-c2ccc(Cl)cc2)n[nH]c1=S (configuration not stated) | -12%

Exported as a markdown table: two of the compounds above.
| SMILES | VDR inhibitor |
| --- | --- |
| COc1ccc(CC(=O)Nc2ccc(C(=O)NCC(C)C)cc2)cc1 | -4% |
| Cc1ccc2[nH]c3c(c2c1)CN(C(=O)CN1CCCCC1)CC3 | 20% |

Next section.
SMILES | VDR inhibitor
CC(C)c1nc(SCC(=O)c2c[nH]c3ccccc23)n[nH]1 | -15%
CC(COc1ccccc1)N1CCC(CO)(Cc2ccccc2)CC1 (configuration not stated) | 11%
CCc1ccc(S(=O)(=O)c2nnn3c2nc(N2CCOCC2)c2ccccc23)cc1 | -3%
O=C(CC1C(=O)NCCN1Cc1ccoc1)NCCCn1ncc2ccccc21 (configuration not stated) | -7%
O=C(CCSCCC(=O)NCCN1CCOCC1)NCCN1CCOCC1 | -9%
CC(=O)C1=NN(c2ccccc2)C(c2ccc3c(c2)OCO3)N1c1ccccc1 (configuration not stated) | 12%
Cc1ccc(CN2Cc3cccc4c3[C@@H](CC2=O)[C@H](O)[C@H](O)C4)cc1 | 5%
O=C(c1ccc(-c2ccccc2)cc1)N1CCN(c2ccccc2)CC1 | 18%
Cc1cc(C(=O)CSc2n[nH]c(N)n2)c(C)n1C1CC1 | -6%
COc1ccccc1-c1nc2c(c(SCc3cccc(Cl)c3)n1)Cc1c(CO)cnc(C)c1O2 | 15%

A draw from above in order of molar mass, high to low.
SMILES | VDR inhibitor
CCOC(=O)c1c(NC(=S)N2CCCCC2)sc2c1CCN(C(=O)OCC)C2 | -29%
CCc1ccc(S(=O)(=O)c2nnn3c2nc(N2CCOCC2)c2ccccc23)cc1 | -3%
O=C(CC1C(=O)NCCN1Cc1ccoc1)NCCCn1ncc2ccccc21 (configuration not stated) | -7%
CC(=O)C1=NN(c2ccccc2)C(c2ccc3c(c2)OCO3)N1c1ccccc1 (configuration not stated) | 12%
O=C(c1ccc(-c2ccccc2)cc1)N1CCN(c2ccccc2)CC1 | 18%
CC(COc1ccccc1)N1CCC(CO)(Cc2ccccc2)CC1 (configuration not stated) | 11%
Cc1ccc(CN2Cc3cccc4c3[C@@H](CC2=O)[C@H](O)[C@H](O)C4)cc1 | 5%
COc1ccc(/C=N/n2cncn2)cc1CSc1ccccn1 | -16%
CC(c1ccccc1)n1c(-c2ccc(Cl)cc2)n[nH]c1=S (configuration not stated) | -12%
O=C(O)[C@@H]1CCCN1S(=O)(=O)c1cccc2cccnc12 | -2%
CC(C)c1nc(SCC(=O)c2c[nH]c3ccccc23)n[nH]1 | -15%
Cc1cc(C(=O)CSc2n[nH]c(N)n2)c(C)n1C1CC1 | -6%
CN(C)S(=O)(=O)N1CCc2ccccc2C1 | 2%

Assay outcomes as filed in PubChem.
